KCNQ2 block: KCNQ2 potassium channel inhibitors, primary screen, cell-based, CHO-K1, FluxOR thallium flux, B-score (AID 2156); 20 min; active compounds read low; only compounds with negative scores are shown here; some inactives read as strong as hits; B-score at 10 µM; 1.1% of 310,000 active;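 active = fluorescence ratio B-score at most minus 3 library SDs, with starting brightness B-score within 2 library SDs, cut at about -5.5 in these data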
Target sequence (O88943 whole entry, looked up): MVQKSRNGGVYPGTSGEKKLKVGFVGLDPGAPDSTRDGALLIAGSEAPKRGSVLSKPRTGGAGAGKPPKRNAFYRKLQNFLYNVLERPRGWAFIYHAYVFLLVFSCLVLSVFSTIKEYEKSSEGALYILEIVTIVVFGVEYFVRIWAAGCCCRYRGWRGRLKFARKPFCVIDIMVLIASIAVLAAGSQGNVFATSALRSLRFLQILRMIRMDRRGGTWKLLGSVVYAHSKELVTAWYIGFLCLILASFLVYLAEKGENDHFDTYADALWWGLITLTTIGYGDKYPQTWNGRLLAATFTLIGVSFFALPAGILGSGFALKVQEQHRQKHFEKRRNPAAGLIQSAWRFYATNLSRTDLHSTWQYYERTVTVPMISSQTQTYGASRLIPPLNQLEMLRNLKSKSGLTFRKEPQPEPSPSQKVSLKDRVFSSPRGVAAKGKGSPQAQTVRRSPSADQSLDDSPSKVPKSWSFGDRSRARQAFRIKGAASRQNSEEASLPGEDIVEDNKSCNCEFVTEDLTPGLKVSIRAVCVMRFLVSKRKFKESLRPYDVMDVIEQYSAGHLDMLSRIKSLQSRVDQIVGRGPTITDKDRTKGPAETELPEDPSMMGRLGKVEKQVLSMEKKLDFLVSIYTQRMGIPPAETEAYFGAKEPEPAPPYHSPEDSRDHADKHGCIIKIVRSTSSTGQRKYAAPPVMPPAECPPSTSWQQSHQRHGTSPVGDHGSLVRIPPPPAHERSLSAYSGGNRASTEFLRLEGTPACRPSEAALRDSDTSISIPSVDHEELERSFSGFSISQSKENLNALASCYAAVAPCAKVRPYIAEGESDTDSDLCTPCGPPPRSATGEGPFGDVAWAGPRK
KCNQ2 block baseline: further read-out of KCNQ2 block, marked with its call; B-score; measured here: initial fluorescence intensity artifact check;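 brightness before thallium and not channel activity; 0 = typical well and far values either way flag optical interference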
Active calls of the source: *; i = inactive.

Sample of the layout (5 entries):
smiles | KCNQ2 block | KCNQ2 block baseline
CCCNC(=O)Cn1c(=O)oc2cc(S(=O)(=O)N3CCCC3)ccc21 | i | 2.9
O=C(CCc1c[nH]c2ccccc12)NCCc1ccc(O)cc1 | i | -1.4
COc1ccccc1N1CC(C(=O)Nc2nnc(SCC(=O)N3CCCC3)s2)CC1=O (configuration not stated) | i | 0.48
O=C(CN1CCN(c2ncc(C(F)(F)F)cc2Cl)CC1)NC(=O)NCc1ccccc1 | i | 0.9
CN(CC(=O)Nc1ccccc1Cl)C(=O)COC(=O)c1nc(Cl)ccc1Cl | i | -0.77

The whole of this part, from the start:
smiles | KCNQ2 block | KCNQ2 block baseline
CCCNC(=O)Cn1c(=O)oc2cc(S(=O)(=O)N3CCCC3)ccc21 | i | 2.9
O=C(CCc1c[nH]c2ccccc12)NCCc1ccc(O)cc1 | i | -1.4
COc1ccccc1N1CC(C(=O)Nc2nnc(SCC(=O)N3CCCC3)s2)CC1=O (configuration not stated) | i | 0.48
O=C(CN1CCN(c2ncc(C(F)(F)F)cc2Cl)CC1)NC(=O)NCc1ccccc1 | i | 0.9
CN(CC(=O)Nc1ccccc1Cl)C(=O)COC(=O)c1nc(Cl)ccc1Cl | i | -0.77
CSCCC(NC(=O)c1ccco1)C(=O)NC1CCCCCC1 (configuration not stated) | i | -0.56
CCN1CCN(Cc2ccc(NC(=O)c3cc(NC(=O)c4nccnc4N)cc(OC)c3)cc2C(F)(F)F)CC1 | i | -1.8
COc1ccc(CCNC(=O)c2cnc(C)cn2)cc1 | i | 0.61
COc1cccc(N2CCN(C(=O)c3cc4cc(Cl)ccc4[nH]3)CC2)c1 | i | 1.4
O=c1c2ccccc2[nH]c(=S)n1C1CCCCC1 | i | 0.17
Cc1ccc(C(=O)N/C(=C/c2ccco2)C(=O)NCCc2c[nH]c3ccccc23)cc1 | i | -2.6
COC(CNC(=O)c1ccc(CS(=O)(=O)c2ccc(Br)cc2)o1)OC | i | -1.6
COc1cc2ccccc2cc1C(=O)NNC(=O)c1ccccc1O | i | -0.53
CCOc1cccc(C(=O)Nc2ccc3[nH]ncc3c2)c1 | i | -2.3
C=CCSc1nc(-c2ccccc2)c2cc(Cl)ccc2n1 | i | -0.73
COc1ccccc1CNC(=O)c1ccccc1C(=O)NC(CC(C)C)C(=O)NCc1ccccc1OC (configuration not stated) | i | -0.33
O=C(CSc1nc(=O)n(CCCN2CCOCC2)c2c1CCC2)Nc1cccc(F)c1 | i | -0.29
CC(NC(=O)CCN1C(=O)c2ccccc2C1=O)c1ccccc1 (configuration not stated) | i | 0.76
Cc1cc(C)cc(N(C(=O)c2csnn2)C(C(=O)NC2CCCCC2)c2cccnc2)c1 (configuration not stated) | i | 1.5
CCOc1ccc(N2CC(C(=O)Nc3cccnc3)CC2=O)cc1 (configuration not stated) | i | -0.09

Compound profiles (already shown).
COC(CNC(=O)c1ccc(CS(=O)(=O)c2ccc(Br)cc2)o1)OC is listed as KCNQ2 block = i; KCNQ2 block baseline = -1.6
COc1ccc(CCNC(=O)c2cnc(C)cn2)cc1 is listed as KCNQ2 block = i; KCNQ2 block baseline = 0.61

Two records picked at random from the list so far, as already listed:
smiles | KCNQ2 block | KCNQ2 block baseline
Cc1cc(C)cc(N(C(=O)c2csnn2)C(C(=O)NC2CCCCC2)c2cccnc2)c1 (configuration not stated) | i | 1.5
C=CCSc1nc(-c2ccccc2)c2cc(Cl)ccc2n1 | i | -0.73

(listing goes on)
smiles | KCNQ2 block | KCNQ2 block baseline
COc1cccc(Cn2cnc3c(NS(=O)(=O)c4cccc(Cl)c4Cl)c(C)c(C)cc32)c1 | i | 1.2
Cn1c(=O)c2c(nc(NCC(O)CO)n2CCc2ccccc2)n(C)c1=O (configuration not stated) | i | -0.3
CSc1nnc(CSc2cc(C)nc(N(C)C)n2)o1 | i | 3
COc1ccc(CCNC(=O)C2(C)CCC(=O)N2CCC(C)C)cc1OC (configuration not stated) | i | 0.05
NC(=O)c1ccc(NC(=O)CN2CCN(C(=O)c3ccco3)CC2)cc1 | i | -0.96
COc1ccc(CCNC(=O)CSc2n[nH]c(C)c2[N+](=O)[O-])cc1OC | i | 2.1
Cc1cccc(NC(=S)NCCN(C2CCCCC2)C2CCCC2)c1 | i | -0.78
CC(=O)N1CCN(C(=O)c2ccc(NS(=O)(=O)c3cc(C)ccc3C)cc2)CC1 | i | 0.11
O=C1N=C(c2ccccc2)S/C1=C\c1cccs1 | i | 1
Cc1cc(NC(=O)CSc2nncn2-c2ccccc2)no1 | i | 0.04
CCn1c(=NC(=O)c2ccc(S(=O)(=O)N3CCOCC3)cc2)sc2cccc(OC)c21 | i | -0.04
O=C1c2ccccc2C(=O)N1CCc1ccccc1 | i | -0.07
CC(Oc1ccccc1)C(=O)N=Nc1c(O)[nH]c2ccc([N+](=O)[O-])cc12 (configuration not stated) | i | -3.7
Cc1ccc(O)c(C2=Nc3ccccc3N=C(c3ccc([N+](=O)[O-])cc3)C2)c1 | i | -0.5

These rows are one share of the data; the hit share may differ from the screen's.
